gsp agonist: activates gsp, the McCune-Albright syndrome mutation; gsp mutant cells, cAMP HTRF, 30 min; control for the full effect not named in the record; Potency, µM (series often up to 76.9 µM), without a hit: top-dose activation (cAMP increase), actives largely listed as activators; 340,000 tested, 0.13% active; active = well fitted activation curve with a large enough effect; inconclusive = small, poorly fitted or top-dose-only effect, or another doubt; inactive = no such curve, though single readings can be large or run the other way; cell line not stated here;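 further: phosphodiesterase inhibitor Ro 20-1724 added with compounds to block cAMP breakdown; potency means the concentration at half of the fitted maximal effect; nearly all actives have a fitted effect of over 60% in size; about a fifth of the inactives were tested at one dose only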
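Cells stably selected in G418 were plated at 2000/well, grown 16-24 hr, then given compounds in DMSO with the PDE inhibitor […] (300 uM solution added) for 30 min at 37C; cAMP was read by HTRF.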
Sfp PPTase inh: blocks B. subtilis Sfp PPTase activity; Q9F4F7; Biochemical Sfp PPTase activity, qHTS; Potency, µM, inactives show max response, negative = inhibition, actives largely listed as inhibitors; 310,000 tested, 3.5% active; active means well fitted inhibition curve with a large enough effect; inconclusive means small, poorly fitted or top-dose-only effect, or another doubt; inactive means no such curve, though single readings can be large or run the other way;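 further: the enzyme is Sfp with the accession as filed and its product quenches rhodamine fluorescence; potency means the concentration at half of the fitted maximal effect; 0% = enzyme reaction without inhibitor and -100% = no enzyme wells; top concentration of the series not given in the record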
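Fluorescence-quenching assay: 15 nM Sfp-PPTase preincubated 15 min at room temperature with compound, then 5 uM rhodamine-CoA and 12.5 uM BHQ-2-labelled YbbR peptide added. Fluorescence (ex 525/em 598 nm) read at start and after 30 min; difference gives rate.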
ClpP mod: qHTS Assay for Activators of ClpP | ATP-dependent Clp protease proteolytic subunit (Bacillus subtilis (strain 168)), P80244 | purified B. subtilis ClpP, FRET peptide cleavage, 20 min | Potency, µM (doses to about 57.5 µM), for the others: at the top dose activity change, negative = active | 340,000 tested, 1.9% active | AID 651965, 2013; active = well fitted falling curve with a large enough effect; inconclusive = small, poorly fitted or top-dose-only effect; inactive = no such curve, though single readings can be large or run the other way; further: potency means the concentration at half of the fitted maximal effect; the source files actives as falling curves though it sought activators and does not explain the sign; nearly all actives have a fitted effect of over 65% in size; many hits overshoot -100%
Target sequence (P80244 whole entry, looked up): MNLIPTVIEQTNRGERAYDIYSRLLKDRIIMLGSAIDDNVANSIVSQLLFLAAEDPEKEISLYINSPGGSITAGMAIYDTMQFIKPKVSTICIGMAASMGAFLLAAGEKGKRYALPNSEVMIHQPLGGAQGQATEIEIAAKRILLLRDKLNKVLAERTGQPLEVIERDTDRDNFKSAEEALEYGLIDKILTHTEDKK
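Buffer: 100 mM Tris/HCl pH8, 100 mM KCl, 0.05% low protease BSA, 2.5% glycerol, 0.01% Tween-20. ClpP 10 microg/mL final; 20 min RT; delta FRET normalized to ADEP and DMSO controls.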
D2 ag: human D2 receptor agonism in beta-arrestin assay | P14416 | DiscoveRx PathHunter D2 beta-arrestin, luminescence, 90 min; 100% = 57 uM dopamine signal | activation, % (concentration not given with the values) | 360,000 tested, 0.084% active | AID 624465; in the data active = activation above about 40%; inconclusive = about 15% to 40%; inactive = below about 15%; further: compound concentration not given in the record; the text of the record calls up to 30% inactive
Target sequence (P14416 whole entry, looked up): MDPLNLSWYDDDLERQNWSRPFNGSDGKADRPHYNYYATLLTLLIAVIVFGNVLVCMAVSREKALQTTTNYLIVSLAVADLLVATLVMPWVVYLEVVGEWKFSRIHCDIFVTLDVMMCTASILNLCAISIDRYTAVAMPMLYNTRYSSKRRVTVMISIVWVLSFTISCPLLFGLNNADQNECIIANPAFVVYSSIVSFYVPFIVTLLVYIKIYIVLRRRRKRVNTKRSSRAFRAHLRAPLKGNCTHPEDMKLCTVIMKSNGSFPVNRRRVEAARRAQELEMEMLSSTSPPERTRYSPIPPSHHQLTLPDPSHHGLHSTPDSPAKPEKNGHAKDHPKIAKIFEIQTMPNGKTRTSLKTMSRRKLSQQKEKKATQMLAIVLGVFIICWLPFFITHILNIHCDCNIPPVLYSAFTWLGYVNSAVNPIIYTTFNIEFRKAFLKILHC
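DiscoveRx PathHunter D2 beta-arrestin cells (2,100/well) attached overnight, then compound-stimulated 90 min at 37 C in HBSS/10 mM HEPES/0.1% Tween-20 buffer; beta-galactosidase complementation read by luminescence after 1 h at ambient temperature. Dopamine 57 uM final (EC100) as control.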
Menin MLL FP FL: displaces fluorescein MLL peptide from human menin | FP activity change, % at 61.4 µM | Fluorescence polarization, fluorescein-MLL peptide displacement from menin | AID 1766 | 290,000 tested, under 10 active; inconclusive = falling polarisation curve, or a change in total fluorescence; inactive = total fluorescence flat and polarisation flat or rising; no compound was filed as active; the % refers to the polarisation; negative = inhibition;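 further: % of control where 0% means no effect; inhibitors lower the polarisation; unlabelled MLL peptide was the positive control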
PINK1 expr mod: modulators of PINK1 expression; PINK1 immunofluorescence, high-content cytometry, 24 h; AID 624263; 410,000 tested, 0.2% active; Potency, µM (top dose mostly 76.6 µM), for inactives: top-dose activation (PINK1 increase), most hits filed as activators; active = well fitted activation curve with a large enough effect; inconclusive = small, poorly fitted or top-dose-only effect; inactive = flat fitted curve, though single readings scatter; cell line not stated here;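 further: potency means the concentration at half of the fitted maximal effect; % of control where 0% means no effect; nearly all actives have a fitted effect of over 65% in size; a mitochondrial uncoupler was the plate control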
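PINK1 protein level read as immunofluorescence by microplate cytometer in a fixed, stained stable cell line after 24 h exposure to five compound concentrations, with CCCP as control.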
gsp antagonist: antagonizes gsp, the McCune-Albright syndrome mutation | Potency, µM (doses to about 76.9 µM), for the others: top-dose activity change, negative = inhibition, actives largely listed as inhibitors | 340,000 tested, 0.4% active | AID 624288 | gsp-mutant cells, cAMP HTRF, 30 min; control for the full effect not named in the record; active = falling curve of any shape with a large fitted effect; inconclusive = falling curve, mostly with a smaller effect; inactive = flat or rising curve; cell line not stated here;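 further: intracellular cAMP measured with PDE inhibitor Ro 20-1724 present during compound exposure; potency means the concentration at half of the fitted maximal effect; on the % scale 0 is the no-effect control and ±100 the full control effect; nearly all actives have a fitted effect of over 65% in size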
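Cells in G418 medium, seeded 16-24 h, 37C; buffer exchange to DPBS + 1 mM CaCl2, 0.5 mM MgCl2, 0.05% BSA; cpds in DMSO + […] (300 uM stock), 30 min 37C; HTRF cAMP detection.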
Numbers without * were called inactive; ? = inconclusive; nt = not tested or not shown; & = joins results of further samples; [ ] = another dose, or the depositor's remark.

Every second line gives: gsp agonist, Sfp PPTase inh, ClpP mod, D2 ag, Menin MLL FP FL, PINK1 expr mod, gsp antagonist
- CCCCCCC(NC(=O)c1ccc(C)cc1)C(=O)O (configuration not stated)
  nt, nt, -3.4%, -2.4, nt, -0.7%, -5.6%
- C=CCN=C(NC#N)SCc1ccccc1Cl
  -10.9%, 5.7%, -0.3%, -1.2, 1.2, 2.4%, 4.8%[15.4 µM]
- O=C(c1ccccc1)c1ccc[nH]1
  -4.5%, nt, nt, -3.5, nt, -0.1%, 4.3%
- COc1nnc(-c2ccc(C)c(S(=O)(=O)NC(C)C)c2)c2ccccc12
  -30.4%[inhibitor], 8.9%, -1.1%, -4.1, 2.1, 1.5%, 2.9%
- C1=C(c2ccccc2)Nc2nnnn2C1
  -44.8%[inhibitor], 9.0%, 42.3%, -3.0, ?, -0.4%, 14.5%
- CC(=O)c1ccc2c(c1)c1ccccc1n2CC(C)C
  -44.5%[inhibitor], ?, -29.4%, -4.5, -0.4, 2.6%, -7.7%
- O=C(CN1CCOCC1)Nc1nc(-c2ccc(Cl)cc2)cs1
  22.9%[15.4 µM], 16.9%, nt, 9.4, 8.9, 7.3%, -14.6%
- Fc1ccc(CNn2cnnc2SCc2ccc(F)cc2)cc1
  2.9%, 10.7%, 1.3%, -2.0, 1.6, -21.5%[38.3 µM], -3.4%
- N/C(=N\OC(=O)c1ccccc1[N+](=O)[O-])c1ccccn1
  -6.6%[15.4 µM], -0.5%, nt, ?, -5.0, 6.1%, 11.4%
- Clc1cccc(Cl)c1CSc1nnc([C@@H]2CCCN2)o1
  -19.3%[15.4 µM], 15.4%, nt, 2.4, -1.4, -0.9%, 6.5%
- CCOC(=O)C1CCCN(C(=O)COc2ccc(C(=O)c3ccc(F)cc3)cc2)C1 (configuration not stated)
  -33.8%[inhibitor], nt, 1.3%, 0.8, nt, 2.1%, -24.9%
- N#Cc1c(NCc2ccccc2)ccnc1Cl
  -4.1%[15.4 µM], nt, -2.1%, 1.7, nt, -1.1%, 8.7%
- CCC1CCCCN1S(=O)(=O)c1ccc(S(=O)(=O)N2CCN(S(=O)(=O)CC)CC2)cc1 (configuration not stated)
  -27.0%, 18.7%, -2.5%, 0.4, 1.6, 4.7%, 8.1%
- CC1CCCN(C(=O)Nc2ccc(Br)cc2Cl)C1 (configuration not stated)
  -33.5%[inhibitor], -19.6%, 0.7%, -1.0, -1.0, 2.0%, -9.7%
- CCCOc1ccccc1N/C(=N\S(=O)(=O)c1ccc(C)cc1)Nc1nc(C)cc(C)n1
  -22.2%, nt, -0.2%, -3.8, nt, -1.2%, 16.1%
- C=CCC[C@@H](Cc1ccc(F)cc1)C(=O)OC[C@H](C)NC(=O)[C@H](CC=C)CC(=O)N(CCO)Cc1ccccc1
  -19.7%, nt, 1.1%, 5.8, nt, 14.4%, ?
- O=[N+]([O-])c1cccc2ccc(/C=C/c3ccc(C(F)(F)F)cc3)nc12
  -3.5%, ?, -1.0%, 0.2, -3.7, 8.5%, -0.7%
- O=C1C2CCCN2C(c2cccs2)N1c1ccc(Cl)cc1 (configuration not stated)
  14.7%, 6.0%, -1.8%, -3.1, -0.5, -2.2%, 2.7%
- CC(=O)c1ccc2cc3c(cc2c1)OCO3
  -9.1%, nt, -21.9%, -3.2, nt, -1.3%, nt
- CN(C)C(=O)c1ccc(NC(=O)COC(=O)/C=C/c2cccs2)cc1
  -58.1%[inhibitor], nt, -4.7%, -1.0, nt, -1.8%, -1.4%
- CCCn1c(CN(C)Cc2ccccc2)nc2c1c(=O)n(C)c(=O)n2C
  ?, 1.4%, -0.3%, -0.7, -1.7, 2.1%, ?
- CC(C)c1nc(C(=O)N2CCc3c([nH]c4ccccc34)C2c2ccccn2)cs1 (configuration not stated)
  1.5%, -13.1%, nt, -4.6, -1.4, -2.3%, -3.4%
- Cn1c(=O)c2ccccc2n(CC(=O)Nc2ccc3c(c2)OCCO3)c1=O
  6.1%[15.4 µM], 12.8%, nt, -3.0, 1.9, 0.1%, -18.4%
- CCCOc1cccc(-c2cc(-c3n[nH]c(=S)n3CC)c3ccccc3n2)c1
  -1.2%, -26.0%, -2.7%, -1.3, -1.3, 8.7%[38.3 µM], -11.7%
- COc1ccc(-c2noc(CCC(=O)NCc3cccnc3)n2)cc1OC
  3.4%, -5.9%, 1.3%, -1.4, 0.0, -0.3%, 11.9%
- O=C(CNC(=O)c1ccc(Cl)cc1Cl)Nc1ccc(F)cc1
  8.2%[15.4 µM], 19.7%, nt, -9.8, 3.9, 5.2%, 0.6%
- CCOc1cccc(NC(=O)/C(C#N)=C\c2cccnc2)c1
  -0.6%[15.4 µM], 14.3%, nt, -1.6, -0.3, 4.4%, -1.6%
- CC1C(=O)Nc2ccc(S(=O)(=O)Nc3ccccc3Br)cc2NC1=O (configuration not stated)
  -23.9%, 14.6%, -2.0%&0.8%, 6.2, 3.3, 1.4%&0.3%, 15.4%
- O=C(O)C(=Cc1ccccc1[N+](=O)[O-])c1ccccc1
  0.6%, nt, nt, -2.5, nt, -3.4%, 2.7%
- COc1cc2c(cc1NC(=O)c1ccccc1-c1ccccc1C(=O)O)-c1ccccc1C2
  -8.1%, nt, -2.7%, -0.6, nt, -1.2%, nt

Brought forward from above: 3 compounds; new compounds follow.
Every second line gives: gsp agonist, Sfp PPTase inh, ClpP mod, D2 ag, Menin MLL FP FL, PINK1 expr mod, gsp antagonist
- CC1C(=O)Nc2ccc(S(=O)(=O)Nc3ccccc3Br)cc2NC1=O (configuration not stated)
  -23.9%, 14.6%, -2.0%&0.8%, 6.2, 3.3, 1.4%&0.3%, 15.4%
- O=C(O)C(=Cc1ccccc1[N+](=O)[O-])c1ccccc1
  0.6%, nt, nt, -2.5, nt, -3.4%, 2.7%
- COc1cc2c(cc1NC(=O)c1ccccc1-c1ccccc1C(=O)O)-c1ccccc1C2
  -8.1%, nt, -2.7%, -0.6, nt, -1.2%, nt
- Cc1cccc(CSc2ncnc3c2cnn3Cc2ccccc2)c1
  -45.4%[inhibitor], -2.2%, -3.2%, -3.2, 6.9, 1.3%[38.3 µM], 0.5%
- Cc1cc(OC(C)C(=O)NCC2CCC(C(=O)O)CC2)c2c(C)c(C)c(=O)oc2c1 (configuration not stated)
  nt, 6.8%, 4.7%, -4.5, 2.8, -0.2%, 9.2%
- Cc1ccccc1CS(=O)(=O)CCC(=O)NCc1ccc(F)cc1Cl
  15.4%, 22.6%, 0.9%, -4.8, nt, 4.4%, 10.2%
- Cn1c(SCC(=O)NC(=O)NCc2ccccc2)nnc1C(F)(F)F
  -1.4%[15.4 µM], nt, 0.1%, -10.2, nt, 4.9%, -1.3%
- CCC(C)(C)C1CCC(=NNC(=O)c2ccoc2C)CC1 (configuration not stated)
  11.1%, 19.3%, 1.8%, -1.2, 1.0, 0.6%, 9.8%
- CCc1c(C)nc2ncnn2c1N1CCN(S(=O)(=O)c2ccc(OC)cc2)CC1
  7.6%, 11.2%, nt, 2.3, -2.5, -0.7%, -18.0%
- CSc1ccccc1NC(=O)c1ccc(N2CC3CC(C2)c2cccc(=O)n2C3)c(NC(=O)c2cccnc2)c1 (configuration not stated)
  17.4%, -2.6%, -2.5%, 0.8, 1.1, 1.6%, -6.2%
- COc1c(Cl)cc(Cl)cc1/C=N/n1cnnc1
  -21.0%, 4.0%, -24.9%, -1.6, 8.0, 3.4%, 20.8%
- Cc1ccnc(NC(=O)CCC(=O)N(CC(=O)NCc2ccccc2)Cc2ccccc2)c1
  -8.0%[15.4 µM], 12.9%, ?, -7.1, -2.4, -1.3%, -10.0%
- COc1cc2c(cc1OC)C(Nc1ccc(S(N)(=O)=O)cc1)=NC(C)(C)C2
  -6.0%[15.4 µM], 10.1%, -2.4%, -0.1, -5.4, 1.6%, 16.1%
- O=C(NCCc1ccccn1)c1n[nH]c(=O)c2ccccc12
  -34.9%[inhibitor], 9.8%, -1.6%, -1.4, 3.5, -0.5%, 16.5%
- COc1cc(Cl)cc(CN2CCC(CCC(=O)NC3CC3)CC2)c1OC
  1.2%, 21.3%, 0.1%, -5.5, 5.9, 1.2%, -1.8%
- COc1cccc(O)c1CN1CCC(Oc2ccc(C(=O)NCc3ccccn3)cc2)CC1
  4.0%, 25.7%, -0.4%, -4.8, 2.2, -1.2%, 16.2%
- CC1CCCC(NC(=O)CN2CCN(S(=O)(=O)c3ccc(Br)s3)CC2)C1C (configuration not stated)
  -31.8%[inhibitor], nt, -2.4%, -2.4, nt, -0.1%, -4.1%
- NC(=O)c1ccc(Oc2ccc3ccc(=O)oc3c2)c([N+](=O)[O-])c1
  -31.7%[inhibitor], 7.6%, -19.3%, 3.1, -0.7, -0.5%, 5.8%
- C/C(=N\Nc1ccc(Cl)c(C(=O)O)c1)c1ccccn1
  6.7%, 79.4µM*, -0.5%, -5.1, 2.8, 0.6%, 1.6%
- Cc1csc(=O)n1CCC(=O)OCC(=O)N(CC(C)C)c1c(N)n(Cc2ccccc2)c(=O)[nH]c1=O
  -26.9%, 0.7%, 0.2%, -0.9, ?, ?, 12.7%
- COc1ccc(S(=O)(=O)N2CCCOC2CNC(=O)C(=O)NCc2ccco2)cc1C (configuration not stated)
  10.1%, 18.2%, -1.8%, -7.4, 0.6, 5.9%, -0.8%
- CCOC(=O)C1CCCN(C(=O)c2cccc(S(=O)(=O)N(C)c3c(C)n(C)n(-c4ccccc4)c3=O)c2)C1 (configuration not stated)
  -1.1%[15.4 µM], 9.4%, -2.8%, -1.9, nt, -0.6%, 7.1%
- COc1ccc(Cc2nnc(SCC(=O)Nc3ccccc3C)n(N)c2=O)cc1
  0.8%, nt, -12.0%, 2.2, nt, 16.2%, 2.2%
- Cc1cccc(C)c1NC(=O)Nc1nc(C(N)c2ccccc2Cl)cs1 (configuration not stated)
  nt, nt, -0.5%, 4.6, nt, 2.3%, nt

Screening results deposited in PubChem BioAssay by National Center for Advancing Translational Sciences (NCATS).
